GLA inh pH 4.5: qHTS Assay for Inhibitors of Human alpha-Galactosidase at pH 4.5. Alpha-galactosidase A (Homo sapiens), P06280. purified enzyme, 4-MU-alpha-Gal fluorescence, pH 4.5. activity change, negative = inhibition, % at 105 µM. 230,000 tested, under 10 active. AID 1467, 2008; inconclusive = small, poorly fitted or top-dose-only inhibition, or a rising curve; inactive = flat fitted curve, though single readings scatter; no compound was filed as active;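 further: 0% = full activity with enzyme and -100% = basal without enzyme; dose as in the result columns while the protocol names 77 µM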
Rango complex inh: qHTS Assay for Inhibitors of Rango (Ran-regulated importin-beta cargo) - Importin beta complex formation; AID 540263, 2011; actives 0.031% (n = 340,000); Rango CFP/YFP FRET sensor + importin beta, 45 min; Potency, µM (series often up to 92.2 µM), inactives show at the top dose inhibition of complex formation; active = rising FRET ratio curve, often small or poorly fitted; inconclusive = mostly compound fluorescence or quenching in the first reads; inactive = flat curves in all reads;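 further: potency means the concentration at half of the fitted maximal effect; 0% = DMSO wells and 100% = buffer wells lacking importin beta; nearly all actives have a fitted effect of over 15% in size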
Target sequence (Q14974 whole entry, looked up): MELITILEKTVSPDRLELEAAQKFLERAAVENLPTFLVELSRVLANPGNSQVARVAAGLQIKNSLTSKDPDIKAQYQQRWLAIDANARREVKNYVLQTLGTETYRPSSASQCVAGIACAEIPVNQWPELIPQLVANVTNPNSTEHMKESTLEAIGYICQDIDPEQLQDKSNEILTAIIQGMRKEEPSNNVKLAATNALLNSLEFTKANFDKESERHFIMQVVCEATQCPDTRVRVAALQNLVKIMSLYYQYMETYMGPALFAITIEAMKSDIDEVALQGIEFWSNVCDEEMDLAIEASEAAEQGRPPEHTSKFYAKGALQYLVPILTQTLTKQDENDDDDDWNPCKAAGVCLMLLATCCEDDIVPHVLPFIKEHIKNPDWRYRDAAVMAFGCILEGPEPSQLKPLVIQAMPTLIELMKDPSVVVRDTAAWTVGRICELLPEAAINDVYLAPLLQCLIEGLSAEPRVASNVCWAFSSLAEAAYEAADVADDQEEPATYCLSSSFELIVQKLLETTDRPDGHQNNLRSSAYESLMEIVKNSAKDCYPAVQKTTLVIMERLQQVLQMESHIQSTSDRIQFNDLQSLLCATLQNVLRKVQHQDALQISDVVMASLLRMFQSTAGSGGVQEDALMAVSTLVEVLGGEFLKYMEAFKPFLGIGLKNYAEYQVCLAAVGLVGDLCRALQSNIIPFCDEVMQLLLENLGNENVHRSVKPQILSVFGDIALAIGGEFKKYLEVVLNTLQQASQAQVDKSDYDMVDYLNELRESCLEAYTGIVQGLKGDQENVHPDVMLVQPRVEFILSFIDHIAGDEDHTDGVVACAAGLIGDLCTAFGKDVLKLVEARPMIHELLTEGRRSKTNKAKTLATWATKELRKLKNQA
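FRET biosensor (snurportin 1 IBB flanked by EYFP and cerulean), 50 nM, with compound 5 min, then 0.125 microM importin beta in PBS, 1 mM DTT, 0.02% Tween-20, 0.1% BSA. CFP/YFP ratio read after 45 min at room temperature; pre-read flags interference.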
Rango release inh: qHTS Assay for Inhibitors of RanGTP induced Rango (Ran-regulated importin-beta cargo) - Importin beta complex dissociation | AID 540253, 2011 | Snurportin-1 (Homo sapiens) + GTP-binding nuclear protein Ran (Homo sapiens) + Importin … | Potency, µM (titrated, usually from 46.1 µM), inactives show at the highest dose activity change, negative = inhibition | actives 0.071% (n = 340,000) | Biochemical FRET Rango-importin beta, RanGTP-induced dissociation; active means falling FRET ratio curve, often poorly fitted, with flat reads before Ran was added; inconclusive means other falling curves, or compound fluorescence or quenching; inactive means flat or rising ratio curve;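 further: potency means the concentration at half of the fitted maximal effect; % of control where 0% means no effect; nearly all actives have a fitted effect of over 45% in size; -100% = wells without RanGTP and RCC1; the record marks most hits as doubtful in a second field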
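Quantitative HTS using a FRET biosensor: 0.1 uM Rango, 0.25 uM importin beta, 0.6 uM Ran, 2 mM GTP, 0.2 uM RCC1 final, PBS with DTT, Tween-20 and BSA. Post-read taken 45 min after Ran addition.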
miR-21 FLuc: qHTS Assay for Modulators of miRNAs and/orActivators of miR-21; HeLa miR-21 FLuc reporter, luciferase, 48 h; Potency, µM (doses to about 38.3 µM), without a hit: at the highest dose reporter change, positive = more light; 340,000 tested, under 10 active; AID 2288, 2010; active = well fitted rising curve with a large enough effect; inconclusive = small, poorly fitted or top-dose-only effect; inactive = no such curve, though single readings can be large or run the other way;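 further: % of control where 0% means no effect; miR-21 action dims this reporter so a rising signal means less miR-21 action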
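Using DMEM plus 10% FBS, HeLa miR-21-FLuc cells are incubated with test compounds (final up to about 40uM) for 48 hours; firefly luciferase signal is then imaged following reagent-mediated lysis.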
An asterisk follows results filed as active; ? = inconclusive; nt = not tested or not shown; & = joins results of further samples. Not all compounds are listed; rates above refer to the full screens.

1: Cc1cc(C)cc(N(C(=O)Cn2nnc(-c3ccccc3)n2)C(C(=O)NC2CCCCC2)c2ccccn2)c1 (stereo not given)
2: Cc1nn(-c2ccccc2)c(C)c1C=O
3: COc1cccc(C(=O)N2CCN(Cc3ccccc3Br)CC2)c1
4: O=C(CSc1ccc(-c2ccc(F)cc2)nn1)NCc1ccco1
5: CSc1cccc(NC(=O)CN(C)S(=O)(=O)c2cnc[nH]2)c1
6: C=CCc1cccc(C2Nc3ccccc3C(=O)N2O)c1O (stereo not given)

assay / entry | 1 | 2 | 3 | 4 | 5 | 6
GLA inh pH 4.5 | -12 | ? | nt | -8 | nt | 3
Rango complex inh | -2.5% | 0.2% | -3.1% | -0.1% | 1.5% | -0.7%
Rango release inh | -14% | -1% | -6% | -9% | 12% | -3%
miR-21 FLuc | -9% | -15% | 1% | -10% | -8% | -6%

7: CCN(CC(=O)Nc1c(F)cccc1F)C(=O)c1cc(S(=O)(=O)N2CCOCC2)ccc1N1CCCC1
8: O=S(=O)(c1cccc(Cl)c1)N1CCCC1
9: CCC(c1nnc(SCC(=O)NNC(=O)c2ccccc2)n1Cc1ccccc1)N(C)C (stereo not given)
10: CCOC(=O)CC1C(=O)NCCN1C(=O)c1sc2ccccc2c1Cl (stereo not given)
11: CC[N+](CC)(CC)CCCCOc1ccc2c(c1)C(=O)c1cc(OCCCC[N+](CC)(CC)CC)ccc1-2
12: O=C(OCc1nnc(-c2ccc(Br)cc2)o1)c1cncc(Br)c1

assay / entry | 7 | 8 | 9 | 10 | 11 | 12
GLA inh pH 4.5 | nt | -11 | nt | -2 | 0 | 1
Rango complex inh | 3.8% | -1.2% | 4.9% | 1.1% | -4.4% | -0.4%
Rango release inh | -14% | 4% | 21% | 3% | 25% | 5%
miR-21 FLuc | nt | -7% | nt | -6% | 11% | -1%

13: CC(C)c1nc(Cl)c(C#N)c2c1CCC2
14: CCOC(=O)c1ccc(NC(=O)C(=O)NCCc2ccc(OC)cc2)cc1
15: CCCCc1cc(=O)oc2c(C)c(OCc3nn[nH]n3)ccc12
16: CCOc1ccccc1NC(=O)NCc1ccco1
17: O=C(N/N=C1\CCS(=O)(=O)c2ccc(F)cc21)c1ccc([N+](=O)[O-])cc1
18: Cc1ccc(C(C)C)c(OCCCN2CC(C)OC(C)C2)c1 (stereo not given)

assay / entry | 13 | 14 | 15 | 16 | 17 | 18
GLA inh pH 4.5 | 0 | 5 | 8 | 0 | 2 | -2
Rango complex inh | -1.0% | 2.5% | 3.8% | -2.5% | ? | -0.9%
Rango release inh | 14% | 4% | 3% | -3% | 2% | 3%
miR-21 FLuc | 2% | -1%&-1% | -2% | 1% | -9% | -7%

19: CCC(=O)Oc1ccc(NC(=O)c2ccco2)cc1
20: CC(=O)Nc1ccc(S(=O)(=O)N2CCNC(=O)C2)cc1
21: CCOC(=O)C(Sc1ncc(C#N)c(N)n1)C(C)C (stereo not given)
22: CCOc1ccccc1C1CC(=O)Nc2cc(C)c(C)cc21 (stereo not given)
23: CCc1c(C)c(C#N)c2nc3ccccc3n2c1Cl
24: Cc1ccc2nc(-c3cc(N)cc(N)c3)oc2c1

assay / entry | 19 | 20 | 21 | 22 | 23 | 24
GLA inh pH 4.5 | 6 | nt | -14 | nt | 4 | 4
Rango complex inh | -0.1% | -0.7% | ? | -0.8% | nt | -2.4%
Rango release inh | -7% | -5% | ? | ? | nt | -12%
miR-21 FLuc | -4% | nt | -3% | 13% | -1% | 13%

25: Cc1cccc(C)c1N(CC(=O)N/N=C/c1cc(Br)c(C)o1)S(C)(=O)=O
26: O=C(Nc1cc(C(F)(F)F)ccc1N1CCOCC1)c1ccccc1F
27: COc1ccc(CCNC(=O)COC(=O)Cc2ccc(OC)cc2)cc1
28: CC(CNC(=O)c1ccc(-c2ccccc2)cc1)CN(C)C (stereo not given)
29: O=C(Nc1ccc2ccccc2c1)/C(=C\c1ccc2c(c1)OCO2)NC(=O)c1ccco1
30: FC(F)(F)c1ccc(Oc2ccccc2Cl)nc1

assay / entry | 25 | 26 | 27 | 28 | 29 | 30
GLA inh pH 4.5 | 5 | 4 | 7 | -3 | -7 | 3
Rango complex inh | -4.5% | -1.6% | -1.4% | 2.1% | -1.7% | 2.4%
Rango release inh | 29% | 3% | -8% | -12% | -4% | 1%
miR-21 FLuc | -6% | -14% | 1% | -11% | -12% | 5%

31: Cc1ccc(CN2CCN(Cc3ccc(Oc4ncccn4)cc3)CC2CCO)cc1 (stereo not given)
32: O=C(NCC[C@@H]1C[C@@H]2C=C[C@H]1C2)c1cc(COc2ccc(F)cc2F)on1
33: COC(=O)c1cn(NC(=O)/C=C/c2cccc(OC)c2OC)c(=O)c2ccccc12
34: CC(C)Nc1ccc(Nc2ccnc3cc4ccccc4cc23)cc1
35: O=C(CN1C(=O)c2ccccc2S1(=O)=O)NCc1ccccc1
36: CNC(=O)c1ccc(-c2cc(C(F)(F)F)nn2C)s1

assay / entry | 31 | 32 | 33 | 34 | 35 | 36
GLA inh pH 4.5 | 4 | nt | -5 | -21 | nt | 0
Rango complex inh | 1.5% | 3.8% | nt | 8.9% | -1.9% | 8.8%
Rango release inh | -7% | -6% | nt | -13% | 16% | 22%
miR-21 FLuc | -6% | 2% | -4% | ? | -3% | -55%

37: COc1ccc(CCNC(=O)CCC(=O)N2CCN(S(=O)(=O)c3ccccc3)CC2)cc1OC
38: Cc1ccc(Nc2nc(-c3ccc(O)c(O)c3)cs2)nc1
39: Cc1ccc(S(=O)(=O)CCN2CCN(c3ccccn3)CC2)cc1
40: O=c1[nH]cnc2c1ncn2[C@@H]1C[C@@H](O)[C@H](CO)O1
41: Cc1c(C)c2ccc(OS(C)(=O)=O)c(C)c2oc1=O
42: CCC(=O)Nc1cc(C)c(NC(=O)c2ccco2)cn1

assay / entry | 37 | 38 | 39 | 40 | 41 | 42
GLA inh pH 4.5 | -15 | 6 | -5 | nt | 9 | 0
Rango complex inh | -0.4% | 0.0% | 3.1% | 3.1% | ? | 3.9%
Rango release inh | -17% | -12% | 12% | 1% | 1% | 0%
miR-21 FLuc | -4% | -71% | 1% | 1% | -31% | -14%

43: O=[N+]([O-])c1cc(C2Nc3cccc4cccc(c34)N2)ccc1Cl
44: COc1cccc(CNC(=O)Cn2ccc3cc(S(=O)(=O)N4CCC(C)CC4)ccc32)c1
45: Cc1cc(C)n(S(=O)(=O)c2cccc([N+](=O)[O-])c2)n1
46: COC(=O)Cc1c(C)c2ccc(OCc3nn[nH]n3)cc2oc1=O
47: CCN1CCN(c2cc(C(C)(C)C)nc3c(-c4ccccc4)c(C)nn23)CC1
48: COc1ccc(Cl)cc1S(=O)(=O)NC(C)C(=O)NCCN1CCOCC1 (stereo not given)

assay / entry | 43 | 44 | 45 | 46 | 47 | 48
GLA inh pH 4.5 | 3 | nt | nt | 4 | -10 | nt
Rango complex inh | 0.5% | -2.1% | 3.6% | 0.0% | -1.9% | 1.1%
Rango release inh | -7% | 8% | 2% | 1% | 7% | 2%
miR-21 FLuc | -1% | -1%&5% | -1% | 0% | -3% | nt

49: O=C(Cc1ccccc1)NCCc1cn2ccsc2n1
50: NS(=O)(=O)c1ccc2nc(NC(=O)c3ccncc3)sc2c1
51: CCc1ncc(CN2CCCC(C(=O)Nc3cccc(-c4ccc(F)cc4)c3)C2)cn1 (stereo not given)
52: CC(=O)c1cnc2nc(SCc3ccc(Cl)cc3)nn2c1C
53: Cc1cc(-c2ccc(C(C)C)c(S(=O)(=O)Nc3cc(C)on3)c2)on1
54: CCOC(=O)C1=C(C)NC(C)=C(C(=O)OCC)C1c1ccco1

assay / entry | 49 | 50 | 51 | 52 | 53 | 54
GLA inh pH 4.5 | 5 | -7 | nt | nt | nt | -2
Rango complex inh | 0.0% | -2.7% | 4.6% | -1.1% | 3.2% | -0.6%
Rango release inh | -4% | 18% | -1% | -1% | -16% | -8%
miR-21 FLuc | -3% | 0% | 0% | -29% | -1% | 7%

55: CN(C(=O)CSc1nc2ccccc2c(=O)n1-c1ccccc1F)C1CCS(=O)(=O)C1 (stereo not given)
56: COc1ccccc1Nc1ncccc1[N+](=O)[O-]
57: O=c1cc(N2CCc3ccccc32)[nH]c(=O)n1Cc1ccc(F)cc1
58: Cc1ccc2nc(N3CCN(C=O)CC3)nc(-c3ccccc3)c2c1
59: CCCn1ccnc1SCC(=O)Nc1c(C)n(C)n(-c2ccccc2)c1=O
60: O=C(Nc1nncs1)C1c2ccccc2Oc2ccccc21

assay / entry | 55 | 56 | 57 | 58 | 59 | 60
GLA inh pH 4.5 | nt | nt | 2 | -3 | nt | 4
Rango complex inh | 0.8% | -0.5% | -0.7% | ? | 0.3% | 3.8%
Rango release inh | 5% | 19% | 2% | ? | 6% | 4%
miR-21 FLuc | nt | -14% | -3% | 2% | nt | -5%

61: Cc1sc(-c2ccncc2)nc1OC(=O)c1cc(Cl)cc(Cl)c1
62: CN(C)c1nn(C(=O)Nc2cccc(C(F)(F)F)c2)cc1-c1ccccc1
63: O=C(Nc1ccc2oc(-c3cccc4ccccc34)nc2c1)c1ncn[nH]1
64: Nc1cc(-c2ccc(OC(F)(F)F)cc2)nn1-c1ccc(Cl)c(Cl)c1
65: COc1cc(-c2nc(-c3ccc(Br)o3)no2)cc(OC)c1OC
66: COc1ccc(N2C(=O)c3ccccc3NC23CCCC3)cc1

assay / entry | 61 | 62 | 63 | 64 | 65 | 66
GLA inh pH 4.5 | -1 | -17 | 16 | -20 | 10 | -4
Rango complex inh | ? | -2.9% | 3.0% | -0.8% | 3.3% | 4.0%
Rango release inh | ? | -3% | 0% | 0% | -10% | 2%
miR-21 FLuc | -2% | 0% | -42% | 1% | -3% | -54%

67: CC(=O)c1ccc(NC(=O)/C(=C\c2ccc(F)cc2)NC(=O)c2ccco2)cc1
68: CC(C)(C)c1cc(N2CCOCC2)n2ncc(-c3ccccc3)c2n1
69: Cc1ccccc1NC(=O)c1cccc2nc3ccccc3nc12
70: COc1ccc(COc2cc(-c3cccc(OC)c3)nc3ccc(NC(=O)C(C)C)cc23)cc1
71: CN(C)CCCN(C(=O)COc1ccccc1)c1nc2c(Cl)cccc2s1
72: Cc1cccc(C(=O)O/N=C2\CCSc3ccc(C)cc32)c1

assay / entry | 67 | 68 | 69 | 70 | 71 | 72
GLA inh pH 4.5 | nt | nt | -17 | -7 | -2 | -6
Rango complex inh | -3.4% | -1.4% | 1.3% | -2.7% | -3.7% | -0.5%
Rango release inh | -4% | -11% | -14% | -3% | 28% | -8%
miR-21 FLuc | 1% | -1% | -3% | 16% | -3% | -1%

73: CC(=O)Nc1ccc(S(=O)(=O)NC2CC(=O)N(c3ccc4c(c3)OCCO4)C2)cc1 (stereo not given)
74: CCOC(=O)C1CCN(C2=NC(=O)/C(=C/c3ccc(O)cc3)S2)CC1
75: COCc1cc(=O)n2[nH]c(C)c(-c3ccccc3)c2n1
76: CN(C(=O)c1ccc(NC(=O)Cc2cccc(NC(=O)C3CCN(C(=O)C4CC4)CC3)c2)cc1)C1CC1

assay / entry | 73 | 74 | 75 | 76
GLA inh pH 4.5 | nt | nt | nt | nt
Rango complex inh | 1.0% | ? | 1.2% | -1.5%
Rango release inh | -21% | 1% | 1% | 0%
miR-21 FLuc | nt | -4% | 2% | nt

Compounds 70 through 73 of the list above:
70: COc1ccc(COc2cc(-c3cccc(OC)c3)nc3ccc(NC(=O)C(C)C)cc23)cc1
71: CN(C)CCCN(C(=O)COc1ccccc1)c1nc2c(Cl)cccc2s1
72: Cc1cccc(C(=O)O/N=C2\CCSc3ccc(C)cc32)c1
73: CC(=O)Nc1ccc(S(=O)(=O)NC2CC(=O)N(c3ccc4c(c3)OCCO4)C2)cc1 (stereo not given)

assay / entry | 70 | 71 | 72 | 73
GLA inh pH 4.5 | -7 | -2 | -6 | nt
Rango complex inh | -2.7% | -3.7% | -0.5% | 1.0%
Rango release inh | -3% | 28% | -8% | -21%
miR-21 FLuc | 16% | -3% | -1% | nt

High-throughput results deposited in PubChem BioAssay by National Center for Advancing Translational Sciences (NCATS).
